PINK1 expr mod = A Quantitative High throughput Screen to Identify Chemical Modulators of PINK1 Expression. Potency, µM (top dose mostly 76.6 µM), for inactives: at the top dose activation (PINK1 increase), usual class: activators. PINK1 immunofluorescence, high-content cytometry, 24 h. 0.2% of 410,000 active. AID 624263, 2012; active = well fitted activation curve with a large enough effect; inconclusive = small, poorly fitted or top-dose-only effect; inactive = flat fitted curve, though single readings scatter; cell line not stated here;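 also: potency is read from the fitted curve at half-maximal effect; % of control where 0% means no effect; nearly all actives have a fitted effect of over 65% in size; a mitochondrial uncoupler was the plate control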
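Decision-based qHTS: stable cells, 24 h exposure to five compound concentrations, CCCP as control. Fixed cells stained for PINK1 plus nuclear, mitochondrial and cell markers, cytometer read.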
TRPML1 blocker = qHTS for Inhibitors of the Human Mucolipin Transient Receptor Potential 1 (TRPML1); Mucolipin-1 (Homo sapiens), Q9GZU1; TRPML1-inducible cells, Ca2+ dye fluorescence, FDSS; hits give low values; inhibition of EC80 agonist-evoked calcium signal; activity change, negative = inhibition, % (test concentration not listed); 0.02% of 390,000 active; AID 624415, 2012; in the data active means activity change below about -50%; inconclusive means about -30% to -50%; inactive means above about -30%;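 also: stimulus is agonist 54-4 at its EC80 concentration; % is scaled to controls: 0 for no effect and ±100 for the full control effect; compound concentration not given in the record; the text of the record puts the active cut at -80%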
Target sequence (Q9GZU1 whole entry, looked up): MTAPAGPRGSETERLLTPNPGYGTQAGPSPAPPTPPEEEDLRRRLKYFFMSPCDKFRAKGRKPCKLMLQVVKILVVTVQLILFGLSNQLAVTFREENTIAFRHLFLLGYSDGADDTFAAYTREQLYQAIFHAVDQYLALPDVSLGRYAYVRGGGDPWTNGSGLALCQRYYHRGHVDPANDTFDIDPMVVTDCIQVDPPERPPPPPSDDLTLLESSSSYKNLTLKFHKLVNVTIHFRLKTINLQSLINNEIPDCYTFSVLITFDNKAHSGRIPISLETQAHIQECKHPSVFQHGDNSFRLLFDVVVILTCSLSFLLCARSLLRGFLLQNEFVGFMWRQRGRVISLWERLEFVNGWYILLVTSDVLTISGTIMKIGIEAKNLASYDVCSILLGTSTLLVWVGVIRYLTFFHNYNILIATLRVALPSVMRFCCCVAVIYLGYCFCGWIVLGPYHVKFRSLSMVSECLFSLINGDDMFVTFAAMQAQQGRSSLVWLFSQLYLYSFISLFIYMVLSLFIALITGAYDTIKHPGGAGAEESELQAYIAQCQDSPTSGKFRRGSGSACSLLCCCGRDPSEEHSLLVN
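TRPML1-DL cells, Tet-induced overnight (~16 h, 37 °C) at 1,500 cells/well, were loaded with Ca8 no-wash dye plus quencher for 45-90 min at room temperature. Compounds were pinned during FDSS kinetic reading; agonist 54-4 at EC80 (4 uM final) then added.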
TRPML1 agonist = qHTS for Agonists of the Human Mucolipin Transient Receptor Potential 1 (TRPML1). TRPML1-expressing cells, Ca2+ dye fluorescence, FDSS; host cell line not named in the record; reference of the full effect not given here. Mucolipin-1 (Homo sapiens), Q9GZU1. 0.12% of 410,000 active. activation, % (no concentration beside the values); in the data active = activation above about 50%; inconclusive = about 30% to 50%; inactive = below about 30%; also: 0% is about no effect; the text of the record puts the active cut at 80%
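TRPML1-DL cells, Tet-induced overnight (~16 h, 37 degrees C), loaded 45-90 min at room temperature with Ca8 no-wash calcium dye plus quencher. FDSS fluorescence: 10 s baseline, compound pin-transfer, 110 s agonist read, then EC80 54-4 (4uM final) and 110 s antagonist read.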
D2 ag = Beta-Arrestin HTS for Positive Allosteric Modulators of the Human D2 Dopamine Receptor: Agonists | activation, % (test concentration not listed) | D(2) dopamine receptor (Homo sapiens), P14416 | DiscoveRx PathHunter D2 beta-arrestin, luminescence, 90 min; 100% = 57 uM dopamine signal | 0.084% of 360,000 active | AID 624465, 2012; in the data active = activation above about 40%; inconclusive = about 15% to 40%; inactive = below about 15%; also: compound concentration not given in the record; the text of the record calls up to 30% inactive
Target sequence (P14416 whole entry, looked up): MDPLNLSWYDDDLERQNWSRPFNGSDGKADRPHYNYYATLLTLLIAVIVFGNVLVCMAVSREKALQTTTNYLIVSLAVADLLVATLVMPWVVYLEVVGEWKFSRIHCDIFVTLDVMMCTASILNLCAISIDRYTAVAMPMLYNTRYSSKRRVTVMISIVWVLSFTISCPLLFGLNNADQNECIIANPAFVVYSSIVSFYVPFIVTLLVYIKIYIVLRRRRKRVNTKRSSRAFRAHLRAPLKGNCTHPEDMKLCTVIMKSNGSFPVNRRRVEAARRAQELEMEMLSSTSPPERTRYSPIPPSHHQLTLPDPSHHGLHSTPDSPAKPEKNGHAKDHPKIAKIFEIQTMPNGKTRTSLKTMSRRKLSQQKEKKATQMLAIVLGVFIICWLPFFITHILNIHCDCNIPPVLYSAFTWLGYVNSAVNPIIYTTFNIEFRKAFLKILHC
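Agonist mode: compounds alone added to overnight-plated D2 PathHunter cells for 90 min at 37 C, with 57 uM final dopamine (EC100) defining full response. Beta-arrestin recruitment detected by chemiluminescent reagent, read after 1 h at ambient temperature.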
Six1-Eya2 blk = qHTS Assay for Inhibitors of the Six1/Eya2 Interaction | Homeobox protein SIX1 (Homo sapiens) + Protein phosphatase EYA2 (Homo sapiens), … | AlphaScreen GST-Six1/His-Eya2 binding, biochemical; hits give low values; control for the full effect not named in the record | activity change, % (test concentration not listed) | 0.56% of 360,000 active | AID 651725, 2012; in the data active = activity change below about -65%; inconclusive = about -30% to -65%; inactive = above about -30%; also: % is scaled to controls: 0 for no effect and ±100 for the full control effect; compound concentration not given in the record
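AlphaScreen with GST-Six1 and His-Eya2 (5X mix: 250 nM and 500 nM), glutathione donor and nickel acceptor beads; buffer 50 mM Tris pH 8.0, 300 mM NaCl, 1 mM TCEP; 1 h at 37 C in the dark.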
CtBP-E1A blk = qHTS Assay for Inhibitors of the CtBP/E1A Interaction; 0.49% of 340,000 active; activity change, % (no concentration beside the values); AID 651724, 2012; CtBP / adenovirus E1A interaction (AlphaScreen); AlphaScreen GST-E1A/His-CtBP binding, 1536-well; hits give low values; control for the full effect not named in the record; in the data active means activity change below about -65%; inconclusive means about -30% to -65%; inactive means above about -30%; also: % is scaled to controls: 0 for no effect and ±100 for the full control effect; compound concentration not given in the record
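AlphaScreen with 125 nM GST-E1A and 125 nM His-CtBP (5X stocks) in Tris pH 8.0, 300 mM NaCl, BSA, Tween 20, TCEP. Compounds preincubated 2 h at 37 deg C, then glutathione donor/nickel acceptor beads added for 1 h at 37 deg C in dark.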
* hit, by the source's call; ? = inconclusive; . = no result given; & = joins results of further samples; [ ] = dose if it differs, or a comment.

SMILES	PINK1 expr mod	TRPML1 blocker	TRPML1 agonist	D2 ag	Six1-Eya2 blk	CtBP-E1A blk
Cn1cnc([N+](=O)[O-])c1Nc1ccc(O)cc1	-1.3%	-6	-0.3	3.8	-2	3
C#CCOCCOCCOCCNc1nc(N2CCN(C(=O)[C@H](C(C)C)n3cc(CCO)nn3)CC2)nc(N2CCN(C(=O)[C@H]([C@@H](C)CC)n3cc(CCCCN)nn3)CC2)n1	-0.3%	-13	0.6	-6.2	5	-23
O=C(COC(=O)/C=C/c1ccccc1)NCc1ccc(Cl)cc1	11%	-18	2.2	-1.0	0	1
Nc1cc(S(=O)(=O)Nc2cc(Cl)ccc2Cl)ccc1N1CCCC1	3.3%	7	0.9	6.0	-6	-11
COc1ccc(CN(C)CC(=O)Nc2ccccc2C(=O)NC2CC2)cc1OC	0.1%	8	0.5	0.9	-1	1
CCOC(=O)C1=C(N)Oc2cc(O)ccc2C1c1cccc(Cl)c1 (stereo not given)	2.4%	-29	1.6	0.4	2	-2
O=C1CCC(=O)N1CN(C(=O)c1ccco1)c1ccc(Cl)c(Cl)c1	1.5%	-13	-0.9	-2.5	5	1
O=C(NCC1CCCN1S(=O)(=O)c1cccs1)C(=O)Nc1ccccc1 (stereo not given)	1.7%	-12	-0.6	-1.7	2	3
CCOC(=O)N1CCN(C(=O)C(C)NC(=O)c2ccco2)CC1 (stereo not given)	-0.2%	37	0.0	-2.3	-2	-2
Cc1ccc(C(=O)Nc2ccccc2N2CCCCC2)cc1S(=O)(=O)N1CCOCC1	2.3%	33	1.7	-3.0	-11	-4
CC1Cc2ccccc2N1C(=O)CN1C(=O)NC2(CCCCC2)C1=O (stereo not given)	1.8%	2	0.1	5.6	4	.
Cc1ccc(C)n1-c1ccc(C(=O)N2CCC(C(N)=O)CC2)cc1	2.0%	34	-0.2	-3.4	-4	-3
Cc1ccc(NC2CCCN(C(=O)CN3C(=O)CSC3=O)C2)cc1C (stereo not given)	-0.1%	-17	1.6	-6.8	-7	11
O=C(Cn1c(NCCO)nc2ccccc21)Nc1ccc2c(c1)OCCCO2	0.2%	10	0.8	-1.2	10	7
CCCN1CCN(C(=O)CCCn2c(C)c3cnn(-c4ccccc4)c(=O)c3c2C)CC1	0.4%	-4	-0.3	-1.8	6	3
Cc1ccc(CNC(=O)[C@H]2C[C@@H]2[C@H](NP(=O)(c2ccccc2)c2ccccc2)c2ccccc2)o1	1.4%	-3	-0.3	-2.2	-5	1
C=CCNc1nc2c(c(=O)n(C)c(=O)n2C)n1CC(=C)C	-0.2%	11	-0.8	-4.6	4	1
COC(=O)CC1C(=O)NCCN1C(=O)Nc1ccccc1 (stereo not given)	-0.3%	12	0.7	1.5	14	9
O=C(COC(=O)c1ccc(Br)cc1)NCCc1ccccc1	0.4%	45	2.7	-2.6	-1	-7
COc1cc(F)ccc1-c1cc(C(=O)NCc2cc(C(F)(F)F)cc(C(F)(F)F)c2)[nH]n1	5.8%	.	0.3	6.7	-3	7
Cc1cccc(CNC(=O)c2sc(=O)n(Cc3c(C)cccc3C)c2C)c1	-0.3%	.	2.0	-5.1	11	-21
COc1ccc(/C=C2/NC(=O)N(CC(=O)Nc3cccc(C)c3)C2=O)cc1O	1.6%	10	-1.1	-3.3	2	-4
CCc1sc(C(=O)Nc2cc(S(=O)(=O)N3CCOCC3)ccc2OC)cc1C	2.6%	-9	2.5	-3.2	?	?
C=C(Cl)COC(=O)C1C2C=CC(C2)C1C(=O)O (stereo not given)	-0.4%	-23	-1.0	-2.0	6	0
C=CCN(C(=O)c1cc(C)cc(C)c1)C1(C(=O)Nc2ccccc2)CCN(C(C)C)CC1	-3.7%	-14	0.0	-5.1	1	-1
Remaining list, next part:
SMILES	PINK1 expr mod	TRPML1 blocker	TRPML1 agonist	D2 ag	Six1-Eya2 blk	CtBP-E1A blk
COc1ccc(-c2c(-c3ccccc3)c(C(=O)C(=O)NCCCN(C)C)n3ccc4cc(OC)c(OC)cc4c23)cc1OC	-4.3%	9	-1.7	-2.5	-18	-25
O=C(OCc1nc2ccccc2s1)C1CCN(S(=O)(=O)c2cccs2)CC1	-0.7%	58	2.0	-3.5	-6	4
COc1ccc(/C=C/C(=O)N(C)Cc2cccs2)cc1S(=O)(=O)N1CCOCC1	-1.4%	-9	0.0	3.2	4	5
CCOC(=O)C1=CN(Cc2ccco2)S(=O)(=O)NC1c1ccc(F)c(Cl)c1 (stereo not given)	3.3%	24	-0.6	1.5	7	4
COc1cc(OC)cc(-n2nnnc2SCC(=O)Nc2nc3c(s2)CCCC3)c1	2.8%	21	0.0	-1.8	3	9
O=C(NCC1CCCO1)c1cc2ccccc2oc1=O (stereo not given)	6.9%	-1	-0.3	7.1	-2	0
Cc1cc(C(=O)OCC(=O)c2c(N)n(C)c(=O)n(C)c2=O)c(C)o1	-0.1%	31	0.5	-2.6	-15	-1
COc1ccc(Cc2c(-c3ccccc3)nc3c4ccccc4ccn23)c(C)c1	0.8%	-8	-0.4	-6.4	-3	1
O=C(O)c1ncc(Cl)c(Cl)c1Cl	-0.9%&1.2%	-9&-12	1.4&0.2	-2.0&-3.4	6&2	7&-6
Nc1nc2ccc(S(=O)(=O)c3ccc4nc(N)sc4c3)cc2s1	-1.2%	12	-0.5	-4.8	?	?
Cn1c(N)c(S(=O)(=O)N2CCN(Cc3ccccc3)CC2)c(=O)n(C)c1=O	2.1%	66	-0.4	-1.7	3	-24
CCN(c1ccccc1)S(=O)(=O)c1ccc(OCC(=O)Nc2cc(C)on2)cc1	0.6%	32	1.2	0.2	5	1
COCCNc1nc(NCCCN(C)C)c2sccc2n1	0.7%	.	-0.5	-4.5	1	9
COc1ccc(NC(=O)Cn2nc(C)c3ccccc3c2=O)cc1	-1.0%	-17	-1.0	-4.1	8	.
CC1=C(C(=O)OCCOC(C)C)C(c2cc3c(cc2Br)OCO3)C2=C(CCCC2=O)N1 (stereo not given)	5.5%[38.3 µM]	14	-0.3	-0.7	-1	-8
Cc1cccc(NC(=O)C2CCN(c3nc4ccccc4[nH]3)CC2)c1C	-1.3%	?	1.2	.	.	.
CCNCCNC(=O)c1c(O)c2cccc3c2n(c1=O)CCC3	-1.7%	2	-0.5	-0.1	11	0
CCN(CC)CCCNC(=O)c1ccc2c(c1)NC(=O)C(CS(=O)(=O)Cc1ccc(F)cc1Cl)N2 (stereo not given)	3.8%	-11	-0.3	.	.	.
CSc1nc2ccc(NS(=O)(=O)c3cccc(Cl)c3Cl)cc2s1	2.9%	11	1.1	0.4	0	1
CC(C)CCn1c(N)c(S(=O)(=O)c2cccs2)c2nc3ccccc3nc21	-1.0%[38.3 µM]	16	0.5	-1.5	-3	6
COc1ccc(NS(=O)(=O)c2c(F)cccc2F)cc1S(=O)(=O)N1CCOCC1	1.8%	-17	0.6	3.6	0	-3
Cc1cc(C)cc(NC(=O)N2CCN(S(C)(=O)=O)CC2)c1	0.8%	2	0.7	2.2	8	.
Cc1nc(-c2cccnc2)sc1C(=O)N/N=C/c1ccccc1Cl	3.3%	-7	0.2	0.5	0	-9
CS(=O)(=O)N1CCN(C(=O)c2ccc(-c3ccccc3)cc2)CC1	-0.8%	5	-0.4	-2.7	-1	7
O=S(=O)(Nc1ccc(-c2ccc3nncn3n2)cc1)c1ccccc1F	4.0%	6	0.4	2.4	-11	-6
The results go on.
SMILES	PINK1 expr mod	TRPML1 blocker	TRPML1 agonist	D2 ag	Six1-Eya2 blk	CtBP-E1A blk
CCCCn1c(N)c(N(CCOC)C(=O)C2CCN(S(=O)(=O)c3ccc(C)c(C)c3)CC2)c(=O)[nH]c1=O	-0.2%	-7	-0.2	-4.1	8	0
Fc1ccc(Cn2nnnc2C(c2cccs2)N2CCN(C3CCCCC3)CC2)cc1 (stereo not given)	2.0%	35	0.2	0.9	-8	2
Cc1ccccc1-n1nnnc1SCC(=O)Nc1ccc(N2CCN(C)CC2)cc1	-0.8%	-4	0.5	-2.0	4	22
Cc1ccc(NC(=O)c2cnc(SCC(=O)Nc3cc(C)on3)n(C)c2=O)cc1	-8.3%	0	0.5	.	.	.
Cc1cccc(NC(=S)NCCSc2ccc(Cl)cc2)c1	?	50	4.7	1.1	4	0
CC(C)c1ccc(CC(C)C2C3=C(CCCC3=O)OC3=C2C(=O)CCC3)cc1 (stereo not given)	?	-2	24	4.5	0	-1
Cc1nnsc1SCCNC(=O)c1c(F)cccc1F	1.4%	56	-1.4	1.2	0	3
COc1ccc(-c2cc(C(F)(F)F)n3ncc(C(=O)NCC4CCCO4)c3n2)cc1OC (stereo not given)	4.8%	-2	13	-4.7	2	-2
Cc1ccc2c(c1)sc1nc(-c3cc4ccccc4oc3=O)cn12	1.4%	25	1.1	.	.	.
COc1ccccc1C1(CCNS(=O)(=O)c2ccc(C)cc2)CCOC(C(C)C)C1 (stereo not given)	?	1	4.1	2.3	5	-18
COc1cccc(OC)c1C(=O)Nc1nc2ccc([N+](=O)[O-])cc2s1	0.3%	10	0.0	-4.3	-10	-8
CCCCCC(=O)Nc1ccc(S(=O)(=O)Nc2cc(OC)nc(OC)n2)cc1	-0.5%	-17	-1.1	-0.9	-3	4
CCCC(c1nnnn1Cc1ccc2c(c1)OCO2)N1CCC(C(N)=O)CC1 (stereo not given)	-1.7%	-11	0.9	-1.1	29	0
Cc1ccc(-c2nc(C#N)c(NCC3CCCO3)o2)cc1 (stereo not given)	1.7%	3	-0.8	-1.7	-11	-14

Part of the list above in a different format:
smiles,PINK1 expr mod,TRPML1 blocker,TRPML1 agonist,D2 ag,Six1-Eya2 blk,CtBP-E1A blk
Cc1ccc2c(c1)sc1nc(-c3cc4ccccc4oc3=O)cn12,1.4%,25,1.1,.,.,.
COc1ccccc1C1(CCNS(=O)(=O)c2ccc(C)cc2)CCOC(C(C)C)C1 (stereo not given),?,1,4.1,2.3,5,-18

Laid out differently: entries from further up
Results follow in this order: PINK1 expr mod, TRPML1 blocker, TRPML1 agonist, D2 ag, Six1-Eya2 blk, CtBP-E1A blk
> COc1ccccc1C1(CCNS(=O)(=O)c2ccc(C)cc2)CCOC(C(C)C)C1 (stereo not given)
→ ?, 1, 4.1, 2.3, 5, -18
> Cc1ccc(-c2nc(C#N)c(NCC3CCCO3)o2)cc1 (stereo not given)
→ 1.7%, 3, -0.8, -1.7, -11, -14
> CCCC(c1nnnn1Cc1ccc2c(c1)OCO2)N1CCC(C(N)=O)CC1 (stereo not given)
→ -1.7%, -11, 0.9, -1.1, 29, 0

Assay outcomes deposited in PubChem BioAssay by National Center for Advancing Translational Sciences (NCATS).
